# Screening results (PubChem BioAssay)
# VACV Venus inh: qHTS for Stage-Specific Inhibitors of Vaccinia Orthopoxvirus: Venus Reporter Primary qHTS; Vaccinia virus Venus reporter expression, fluorescence; Potency, µM (titrated, usually from 36.5 µM), without a hit: top-dose activity change, negative = inhibition, actives largely listed as inhibitors; 330,000 compounds, 0.46% hits; AID 720580, 2013; active means well fitted inhibition curve with a large enough effect; inconclusive means small, poorly fitted or top-dose-only effect; inactive means no such curve, though single readings can be large or run the other way; tested in A549 cells; further: nearly all actives have a fitted effect of over 30% in size; inactives centre near -10
# Vaccinia mCherry: qHTS for Stage-Specific Inhibitors of Vaccinia Orthopoxvirus: mCherry Reporter Primary qHTS. Vaccinia virus mCherry reporter infection, fluorescence; about a quarter of the inactives have no number. Potency, µM (series often up to 36.5 µM), for inactives: top-dose activity change, negative = inhibition, most hits filed as inhibitors. AID 720579, 2013. 310,000 compounds, 0.63% hits; active = well fitted inhibition curve with a large enough effect; inconclusive = small, poorly fitted or top-dose-only effect; inactive = no such curve, though single readings can be large or run the other way; tested in A549 cells; further: nearly all actives have a fitted effect of over 35% in size; inactives centre near -10
# * hit, by the source's call; i = inactive; ? = inconclusive; . = not tested or not shown; [ ] = another dose, or the depositor's remark. On the % scale 0 is the no-effect control and ±100 the full control effect; potency means the concentration at half of the fitted maximal effect.
# Value order – VACV Venus inh, Vaccinia mCherry
- OCC[C@H]1C[C@@H](O)[C@H](O)[C@@]2(Cc3ccccc3CCO2)O1
→ -5.2%, i
- C[C@@H](N)C(=O)N[C@H]1CCC2C3CC=C4C[C@@H](O)CC[C@]4(C)C3CC[C@@]21C (stereo partly drawn)
→ -14.3%, i
- Cc1cccc(OCC(=O)N2CCN(C(=O)c3cccs3)CC2)c1
→ 6.2%, -5.3%
- COC(=O)C1=C(C)NC(C)=C(C(=O)OC)C1C(=O)OCc1nnc(-c2ccccc2Cl)o1
→ -15.4%, -24.1%
- CCOc1nsc(OCC)n1
→ -11.7%, -12.5%
- COc1ccc(/C=C/C(=O)OCC(=O)NC2CCCC2)cc1OC
→ -18.9%, -21.0%
- CCOC(=O)c1ccc(NC(=S)N2CCCC(C(=O)N3CCCC3)C2)cc1 (stereo not drawn)
→ -17.3%, i
- O=C(Cn1cc([N+](=O)[O-])cn1)NCCc1c[nH]c2ccccc12
→ -2.7%, -5.3%
- Nc1ccc(C(=O)OCc2ccncc2)cc1[N+](=O)[O-]
→ -18.0%, -7.4%
- CC(C)(C)NC(=O)NC(=O)COC(=O)c1ccco1
→ -10.2%, .
- Cc1cccc(CN2C(=O)N/C(=C/c3cc(C)n(-c4ccccn4)c3C)C2=O)c1
→ -26.3%, -2.8%
- Nc1nc(=S)[nH]c(N)c1N
→ 9.4%, 39.5%[activator]
- COC(=O)N/N=C/c1cc(C)n(-c2ccc(Br)cc2)c1C
→ -18.2%, -2.0%
- Cc1ccc(NC(=S)N2CCC(c3nc4ccccc4s3)CC2)cc1C
→ -16.0%, -27.2%
- Cc1cc(C(=O)COC(=O)C(C)NC(N)=O)c(C)n1Cc1ccco1 (stereo not drawn)
→ -22.2%, -10.5%
- CCC(Sc1nc2c(c(=O)n1CC)SC(C)C2)C(=O)OC (stereo not drawn)
→ -2.8%, -4.3%
- COc1ccc(OC)c(/C=C/c2c([N+](=O)[O-])c(=O)n(C)c(=O)n2C)c1
→ -18.5%, -25.2%
- CNC(=O)C1CCC(Cn2c(=O)c3sccc3n(Cc3ccccc3)c2=O)CC1 (stereo not drawn)
→ -3.2%, -8.9%
- O=C(Cn1ccc(=O)[nH]c1=O)c1ccc([N+](=O)[O-])o1
→ -18.2%, -2.0%
- O=S(=O)(NCc1ccco1)c1cccc(S(=O)(=O)N2CCOCC2)c1
→ -11.5%, -22.6%
- COc1ccccc1C(CNC(=O)c1ccc(NS(=O)(=O)c2ccc(F)c(C)c2)cc1)N1CCCC1 (stereo not drawn)
→ -24.2%, -6.2%
- O=C(N/N=C/c1ccccn1)c1cc(-c2ccc(Cl)cc2)nc2ccccc12
→ -11.3%, -14.3%
- COc1cccc(OCC(=O)N(Cc2nc(-c3ccc(Cl)cc3)no2)C(C)C)c1
→ -28.3%, ?
- COc1ccc(S(=O)(=O)N(CC(=O)N2CCCC2)Cc2ccccc2)cc1
→ -4.9%, .
- COc1ccc(CC(=O)Nc2nc(-c3cccc([N+](=O)[O-])c3)cs2)cc1
→ -14.1%, -19.9%
- O=C(NCCCN1CCOCC1)c1cc(S(=O)(=O)N2CCCCC2)ccc1Cl
→ -4.2%, i
- CCN(c1ccccc1)c1ncnc2c1cnn2-c1ccc(C)cc1C
→ 13.8%, -5.0%
- Cc1ccccc1S(=O)(=O)N(C)C[C@@H]1OCc2cnnn2CCCC(=O)N([C@@H](C)CO)C[C@H]1C
→ -11.5%, -2.0%
- CCc1c(C)sc2c1CCN(C(=O)Nc1ccccc1C(F)(F)F)C2c1ccccc1 (stereo not drawn)
→ 1.8%, -15.1%
- NS(=O)(=O)c1ccc(CCNC(c2ccccc2)c2ccccc2)cc1
→ 1.5%, -7.2%

# Further compounds.
# Value order – VACV Venus inh, Vaccinia mCherry
- COc1ccccc1CNC(=O)c1ccc(CN2CC(=O)N3CCCCC3C2=O)cc1 (stereo not drawn)
→ -14.0%, -13.8%
- Cc1cccc(Cn2c(=O)n(Cc3ccccc3)c(=O)c3sc4ccccc4c32)c1
→ -7.1%, -1.0%
- COc1cc(CC(=O)OCC(=O)Nc2ccc([N+](=O)[O-])cc2)cc(OC)c1OC
→ -1.1%, 0.8%
- CC(C)C(=O)N1CCCC1(C)C(=O)Nc1ccc(F)cc1 (stereo not drawn)
→ 0.4%, i
- CCc1ccc(S(=O)(=O)NCc2cn3ccccc3n2)s1
→ -27.3%, .
- COc1ccc(C(C)=O)cc1CSc1nnc(SCc2cc(C(C)=O)ccc2OC)s1
→ -0.6%, i
- COc1ccc(OCCSc2nnc(CCNC(=O)c3ccc(OC)cc3)n2C)cc1
→ -9.7%, -17.4%
- COc1ccccc1/C=C/C=N\N1CCN(Cc2ccccc2Cl)CC1
→ 1.2%, -22.7%
- COc1ccc(S(=O)(=O)N2CCOC2CNC(=O)C(=O)NCc2ccc3c(c2)OCO3)cc1OC (stereo not drawn)
→ -20.9%, i
- NS(=O)(=O)c1cccc(NC(=O)COc2ncnc3c2cnn3-c2ccccc2)c1
→ -13.5%, i
- Cc1ccc(NC(=O)CCN2C(=O)c3ccncc3C2=O)cc1
→ -3.2%, -10.4%
- O=C(NCc1ccc(F)cc1)c1nc(-c2cccs2)no1
→ -7.3%, 0.5%
- CC/C(=N\NC(=O)c1ccc2c(c1)OCO2)C12CC3CC(CC(C3)C1)C2
→ -26.5%, -33.5%
- Cc1cc(NS(=O)(=O)c2ccc(NC(=O)c3cc(-c4ccccc4Cl)nc4ccccc34)cc2)no1
→ -7.1%, -11.7%
- COC(=O)NN1C(=O)C(c2ccccc2)=C(c2ccc(Cl)cc2)C1=O
→ -7.2%, -15.7%
- CC(=O)O/N=C(/c1nonc1N)N(C)C
→ 1.5%, i
- Cc1nn2c(=O)cc(COc3ccc(/C=C(\C#N)C(=O)Nc4ccccc4)cc3Cl)nc2s1
→ -1.6%, -3.2%
- Cc1csc2nc(CNC(=O)CCC(=O)O)cn12
→ 5.0%, 0.9%
- Cc1ccc(C)c(N2CCN(S(=O)(=O)c3cc(C(=O)Nc4ccc(Oc5ccccc5)cc4)ccc3F)CC2)c1
→ -31.6%, ?
- Cc1nc2ccc(Cl)cc2c(=O)n1-c1cccc(Cl)c1
→ -11.1%, -17.9%
- COc1ccccc1CNS(=O)(=O)c1ccc2c(c1)NC(=O)CC(=O)N2
→ -8.1%, -8.7%
- C/C(=N\N=C(/C)c1cccc(N)c1)c1cccc(N)c1
→ -5.9%[7.34 µM], -2.6%[7.34 µM]
- CCOc1ccccc1NC(=O)NNC(=O)CCc1ccc(OC)cc1
→ -3.9%, -5.9%
- CCOc1ccc(S(=O)(=O)N2CCCC(C(=O)N3CCC(C(N)=O)CC3)C2)cc1Cl (stereo not drawn)
→ -11.8%, -12.6%
- COc1ccccc1CC(=O)NC1CC1
→ -14.6%, -21.0%
- CC(C)C[C@@H]1COc2cccc(N3CCSCC3)c2S(=O)(=O)N1
→ 1.5%, 0.7%
- CCOC(=O)c1ccc(C(=S)N2CCCC2)cc1
→ -11.7%, -20.7%
- CC(C)CN(C(=O)CSc1nnc(-c2cccs2)n1N)c1c(N)n(Cc2ccccc2)c(=O)[nH]c1=O
→ -11.2%, i
- CC(C)OC(=O)CSc1nc2ncc(Cl)cc2[nH]1
→ -12.4%, -19.7%
- O=C(COc1ccc(S(=O)(=O)N2CCOCC2)cc1)NCc1ccco1
→ -3.5%, i

# Other results
structure | VACV Venus inh | Vaccinia mCherry
COCCCNC(=O)CN1C(=O)c2ccccc2C1=O | -3.3% | i
Nc1c(-c2ccsc2)cnc2ncnn12 | -2.2% | i
Cc1cccc(NC(=O)c2sc3nc(C)nc(N4CCOCC4)c3c2C)c1 | -5.6% | -6.1%
CCOc1ccc(Cn2c(O)cc(=O)[nH]c2=O)cc1 | -20.3% | ?
C=CCOC(=O)C1=C(C)NC(SCC(=O)N(CC)CC)=C(C#N)C1c1ccccc1 (stereo not drawn) | -0.2% | -16.2%
O=C(CCCCCn1c(=S)[nH]c2cc3c(cc2c1=O)OCO3)N1CCN(C2CCCCC2)CC1 | ? | ?
Cc1c(Br)c([N+](=O)[O-])nn1CC(=O)Nc1nccs1 | 9.3% | 3.7%
Cc1cc(Oc2ccc(=O)n(C)n2)nc(SCCOc2ccccc2)n1 | -14.1% | -8.9%
COc1ccc(NC(=O)COc2cc(O)c3c(c2)OC(C)(C)CC3=O)cc1 | -7.2% | -6.0%
CCc1nc2ccc(C(=O)NCc3cccs3)cn2c1N(CC)CCOC | -18.3% | 31.2%[activator]

# (list continues)
structure | VACV Venus inh | Vaccinia mCherry
CCCc1cc(C(=O)N2CCCC(N3CCN(c4ccccc4F)CC3)C2)n(C)n1 (stereo not drawn) | -15.5% | -5.1%
C=CC[C@H](CC(=O)N(CCO)Cc1ccccc1)C(=O)N[C@@H](C)COC(=O)[C@@H](CC=C)Cc1ccc(F)cc1 | -29.8% | i
COc1ccc(CCN2CC(C(=O)N3CCCCCC3)CCC2=O)cc1 (stereo not drawn) | -10.1% | -13.7%
O=C(Nc1ccn(CCCNCC2CCCO2)c(=O)n1)OCc1ccccc1 (stereo not drawn) | -4.1% | i
Cc1ccc2[nH]c(=O)c(CN(C(=O)c3cccc([N+](=O)[O-])c3)C(C)(C)C)cc2c1 | -9.9% | -4.9%
Nc1nc(SCc2ccccc2)ns1 | -7.6% | -21.2%
CCN(C[C@H]1N[C@@](CC)(C(=O)OC)[C@H]2C(=O)N(Cc3ccccc3)C(=O)[C@@H]12)S(=O)(=O)c1ccc(OC)cc1 | -24.0% | ?
Cc1ccc(NC(=O)c2nc[nH]c2C(=O)N2CCN(c3ccccc3)CC2)cc1 | -19.1% | -11.5%
COc1cccc(CN(CC2CCCO2)S(=O)(=O)c2ccc(S(=O)(=O)NCC3CCCO3)cc2)c1OC (stereo not drawn) | -13.0% | -0.3%
Cc1nnc2ccc(-c3cccc(NS(=O)(=O)c4ccccc4[N+](=O)[O-])c3)nn12 | -10.9% | -22.0%

# (further entries)
structure | VACV Venus inh | Vaccinia mCherry
O=S(=O)(NCCN1CCCC1)c1cccc2cccnc12 | -6.3% | 21.4%
Cc1ccc(C(=O)CCC(=O)OCc2nnc(-c3ccccc3)o2)cc1 | -14.9% | i
CCN1C(=O)/C(=C/c2cc(C)n(C)c2C)SC1=Nc1ccc(OC)cc1 | -15.4% | -7.3%
CN(C)CCCNC(=O)c1ccc2[nH]c3ccccc3c2c1 | -15.9% | -8.5%
O=C(c1ccccc1)C1Oc2ccccc2C2CC(c3cccs3)=NN12 (stereo not drawn) | -2.5% | -7.9%
COc1ccc(/C=C2\Oc3cc(OC(=O)N4CCOCC4)ccc3C2=O)c(OC)c1 | -1.9% | i
Cc1noc(C)c1CCC(=O)Nc1c(C(C)C)cccc1C(C)C | -3.9% | i
COc1ccccc1NC(=O)CN1CCN(CC(=O)Nc2ccc(F)cc2)CC1 | ? | .
CC(C)CCNC(=O)Cn1c(=O)oc2cc(S(=O)(=O)N3CC(C)CC(C)C3)ccc21 (stereo not drawn) | ? | -28.9%
Cc1cc(C)c(S(=O)(=O)N2CCOC2CNC(=O)C(=O)NCc2ccncc2)c(C)c1 (stereo not drawn) | -17.3% | i

# Remaining list, next part:
structure | VACV Venus inh | Vaccinia mCherry
Cc1nn(C(C)C(=O)Nc2ccccc2C(F)(F)F)c(=O)c2c1sc1ccccc12 (stereo not drawn) | -21.7% | -8.7%
COC(=O)CCC(=O)COc1ccc(OC)cc1C#N | -14.5% | .
COc1cccc(C(=O)N2CCN(Cc3ccc4c(c3)OCO4)CC2)c1OC | -10.5% | -15.8%
C=CCN(C(=O)c1ccc(Cl)cc1)c1ccccc1C(=O)NCC(=O)O | -4.4% | i
N=c1c2c(n(Cc3ccc(F)cc3)c3c1CCC3)CCCC2 | -22.5% | -11.3%
CC(NC(=O)c1ccc2c(c1)S(=O)(=O)N=C1CCCCCN12)c1ccc(S(N)(=O)=O)cc1 (stereo not drawn) | -6.3% | -12.2%
CCOc1ccccc1NC(=O)Cn1cnc2onc(-c3ccc(F)cc3)c2c1=O | 0.5% | 2.7%
Cc1nc2c(OCc3cccc(Cl)c3)cccn2c1N(C)Cc1cccs1 | -18.8% | 1.6%
Cc1ccccc1Cn1c(C(C)O)nc2ccccc21 (stereo not drawn) | -18.7% | .
Cc1ccc(CC2CC(=O)N(c3ccc(Cl)cn3)C2=O)cc1 (stereo not drawn) | -20.4% | .

# (further entries)
structure | VACV Venus inh | Vaccinia mCherry
CCc1ccc(CNC(=O)c2ccc(NC(=O)N3CCCCc4ccccc43)cc2)cc1 | -26.2% | -15.1%
O=S(=O)(NC(=NCc1ccccc1)c1ccccc1)c1ccc(Br)cc1 | -18.9% | -2.9%
COc1ccc(N(CC(=O)N2CCN(c3ccccc3)CC2)S(=O)(=O)c2c(C)noc2C)cc1 | -9.0% | -0.3%
CCOc1ccc(N=Nc2cc(C(C)C)ccc2O)cc1 | -8.2% | -13.7%
O=C(COc1ccc2c3c(c(=O)oc2c1)CCC3)N1CCCC1 | -8.3% | 3.3%
CCOc1ccc(NC(=O)CSc2nccn2-c2cccc(C)c2C)cc1 | -2.5% | -8.7%
Cc1cc2nc(-c3ccc(Br)cc3)cc(C(F)(F)F)n2n1 | -9.4% | -14.1%

# Pulled one by one from the entries so far, 4 records:
structure | VACV Venus inh | Vaccinia mCherry
COc1ccc(N(CC(=O)N2CCN(c3ccccc3)CC2)S(=O)(=O)c2c(C)noc2C)cc1 | -9.0% | -0.3%
O=S(=O)(NC(=NCc1ccccc1)c1ccccc1)c1ccc(Br)cc1 | -18.9% | -2.9%
Cc1cc2nc(-c3ccc(Br)cc3)cc(C(F)(F)F)n2n1 | -9.4% | -14.1%
CCOc1ccc(N=Nc2cc(C(C)C)ccc2O)cc1 | -8.2% | -13.7%
